# High-throughput results as filed in PubChem.
# Polio RdRp inh: poliovirus RdRp elongation inhibitors, primary screen, biochemical, fluorescence polarization, total intensity; Genome polyprotein (Poliovirus type 1 (strain Mahoney)), P03300; poliovirus polymerase elongation; stronger effect = lower value; % elongation, % (compound at 16.7 µg/mL); actives 0.66% (n = 150,000); in the data active means % elongation below about 90%; further: some results filed as inactive read as strong as hits
# Target sequence (P03300 1749-2209 limits assumed): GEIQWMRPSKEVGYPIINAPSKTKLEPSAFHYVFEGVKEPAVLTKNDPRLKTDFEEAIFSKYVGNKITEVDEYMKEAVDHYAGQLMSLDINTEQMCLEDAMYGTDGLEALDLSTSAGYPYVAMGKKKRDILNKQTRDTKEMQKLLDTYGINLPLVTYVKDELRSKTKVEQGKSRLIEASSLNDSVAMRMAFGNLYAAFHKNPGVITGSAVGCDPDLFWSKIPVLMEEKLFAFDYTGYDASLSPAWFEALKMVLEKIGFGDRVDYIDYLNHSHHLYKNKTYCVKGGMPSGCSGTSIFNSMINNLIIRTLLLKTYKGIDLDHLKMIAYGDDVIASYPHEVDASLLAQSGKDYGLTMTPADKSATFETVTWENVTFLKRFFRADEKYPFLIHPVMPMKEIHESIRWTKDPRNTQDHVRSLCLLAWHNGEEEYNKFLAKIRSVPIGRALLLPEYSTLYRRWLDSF
# Polio RdRp inh intensity: further read-out of Polio RdRp inh, marked with its call; % elongation; measured here: total intensity read-out; formula for this scale not given here;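 total fluorescence in place of polarization; lower means less elongation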
# * hit, by the source's call. These rows are one share of the data (hit frequency here may not be typical).
# The opening six compounds, to show the layout:
SMILES,Polio RdRp inh,Polio RdRp inh intensity
COc1ccc(OC)c(-c2noc(N3CCN(c4cccc(C(F)(F)F)c4)CC3)n2)c1,104,97
CCOc1ccc(C(=O)c2cn(Cc3ccc(Cl)cc3)c3cc(OC)c(OC)cc3c2=O)cc1,105,101
COc1cc(OC)c(NC(=O)c2cc(C(C)=O)n3ccccc23)cc1Cl,110,111
CC(=O)N1CCc2c(sc3c2c(=O)n(CCc2ccccc2)c(=O)n3CC(=O)Nc2ccccc2F)C1,107,116
Cc1ccc(-c2noc(-c3nnn(CC(=O)Nc4cc(Cl)ccc4C)c3N)n2)cc1,106,98
O=C(c1cnc2c(c1)COc1ccc(Cl)cc1-2)c1ccccc1O,101,108

# The list itself, from the first entry:
SMILES,Polio RdRp inh,Polio RdRp inh intensity
COc1ccc(OC)c(-c2noc(N3CCN(c4cccc(C(F)(F)F)c4)CC3)n2)c1,104,97
CCOc1ccc(C(=O)c2cn(Cc3ccc(Cl)cc3)c3cc(OC)c(OC)cc3c2=O)cc1,105,101
COc1cc(OC)c(NC(=O)c2cc(C(C)=O)n3ccccc23)cc1Cl,110,111
CC(=O)N1CCc2c(sc3c2c(=O)n(CCc2ccccc2)c(=O)n3CC(=O)Nc2ccccc2F)C1,107,116
Cc1ccc(-c2noc(-c3nnn(CC(=O)Nc4cc(Cl)ccc4C)c3N)n2)cc1,106,98
O=C(c1cnc2c(c1)COc1ccc(Cl)cc1-2)c1ccccc1O,101,108
Cc1cccc(NC(=O)Cn2cc(C(=O)c3ccco3)c3ccccc32)c1C,102,105
COc1ccccc1CNS(=O)(=O)c1cc2c3c(c1)CCN3C(=O)CC2,96,102
CC(C)CCNC(=O)CN1C(=O)CCn2nc(-c3cn(C)c4ccccc34)cc21,111,109
Cc1ccc(NC(=O)c2oc3ccc(S(=O)(=O)N4CCCCCC4)cc3c2C)c(C)c1,114,108
CC(C)Oc1cccc(C2CC(=O)Nc3cc4c(cc32)OCO4)c1 (centres undefined),111,112
COc1ccc(N2CCN(C(c3ccccc3F)c3sc4nc(-c5ccco5)nn4c3O)CC2)cc1 (centres undefined),104,106
CCNc1ccc(-c2nc(-c3ccco3)no2)cc1[N+](=O)[O-],105,120
CC(=O)N1c2ccccc2C(=O)C1N1CCN(c2ccc(F)cc2)CC1 (centres undefined),109,114
Cc1ccc2oc(C(=O)Nc3c(C(=O)Nc4cccc(Cl)c4)oc4ccccc34)cc(=O)c2c1,105,107
CCOC(=O)c1c(-c2ccccc2)oc2ccc(OCc3ccc(C)cc3)cc12,103,108
CC(Oc1ccccc1)C(=O)Nc1ccc(C(=O)OCc2cc(=O)n3nc(C4CC4)sc3n2)cc1 (centres undefined),107,114
CC(C)OCCCNC(=O)CN1C(=O)c2cccnc2Sc2ccccc21,113,117
CCc1ccccc1N1C(=O)N(Cc2cccc(Cl)c2)c2ccccc2S1(=O)=O,110,107
CC(C)Cc1nn2c(=O)cc(COC(=O)c3cccc(NC(=O)c4ccccc4)c3)nc2s1,107,108
CCCN1CCN(CCCNC(=O)c2ccc3c(c2)sc2nc(-c4ccc(OC)cc4)cn23)CC1,102,100
COc1ccc(N(C)C(=O)Cn2cc(S(=O)(=O)N3CCN(c4ccccc4F)CC3)c3ccccc3c2=O)c(OC)c1,112,111
O=C(NCc1ccccc1)c1ccc2c(c1)N(Cc1ccccc1F)C(=O)c1ccccc1S2=O (centres undefined),108,110
COc1ccc(-c2nc3sc(CCNC(=O)C(=O)Nc4ccc(C)c(F)c4)c(C)n3n2)cc1,109,109
Cc1ccccc1-c1noc(CSc2nc3ccccc3[nH]2)n1,104,111

# Next section:
SMILES,Polio RdRp inh,Polio RdRp inh intensity
CCOC(=O)COc1ccc(C2C(C(=O)OC)=C(C)NC3=C2C(=O)c2ccccc23)cc1Cl (centres undefined),114,109
Cc1cccc(NC(=O)c2ccc(N(Cc3ccccc3)S(C)(=O)=O)cc2)c1,105,109
CCOC(=O)C1CCN(c2nc3c(S(=O)(=O)c4ccc(Br)cc4)nnn3c3ccsc23)CC1,107,111
CCc1nn(CC(=O)NCc2ccccc2Cl)c(=O)c2cc3ccccc3n12,115,113
COc1ccc(-c2nc(CN3CCC(C(=O)NCc4ccccc4)CC3)c(C)o2)cc1OC,109,111
CC(C)OCCCNC(=O)c1c2c(nc3ccccc13)C(=O)N(C1CCCCC1)C2,106,116
COc1ccc(CCN2C(=O)c3oc4cc(C)cc(C)c4c(=O)c3C2c2ccc(F)cc2)cc1OC (centres undefined),109,112
CCCCN(CCCC)c1ncnc2c1cnn2-c1cccc(C)c1,96,103
O=C(Nc1ccc(SC(F)F)cc1)c1cc(-c2ccc3c(c2)OCCO3)on1,107,111
COc1ccc(-c2noc(CSc3nnc(C)n3-c3ccc(C)cc3)n2)cc1OC,106,106
Cc1nn(-c2ccccc2)c2nc(C3CC3)cc(C(=O)NCc3ccccc3Cl)c12,109,106
CCOC(=O)c1c(C)[nH]c(C)c1S(=O)(=O)N(C)CC(=O)NCc1ccc(Cl)cc1,108,99
Cc1ccc(NC(=O)Cn2c(=O)n(Cc3nc(C)no3)c(=O)c3cc4c(cc32)OCO4)c(C)c1,113,118
CSc1cccc(NC(=O)c2ccc3c(c2)c(C)c(C)n3Cc2ccc(F)cc2)c1,102,109
COc1cc(/C=C/c2nc(C#N)c(N3CCCCC3)o2)cc(OC)c1OC,115,108
COc1ccc(NC(=O)C2CCCN(c3ncnc4onc(C)c34)C2)cc1OC (centres undefined),105,97
COc1ccc(NC(=O)CSc2nc(-c3ccco3)cc(C(F)(F)F)n2)cc1Cl,104,107
Cc1cc2oc(C(=O)N(Cc3ccc(Cl)cc3)Cc3ccco3)c(C)c2cc1Cl,102,106
Cc1nc2sccn2c(=O)c1S(=O)(=O)Nc1cc(Cl)ccc1O,109,98
Cc1ccc2nc(N3CCC(C(=O)N4CCN(c5cccc(Cl)c5)CC4)CC3)[nH]c2c1,107,108
CC(=O)c1ccc(NC(=O)CCc2c(C)nn(-c3ccc4nnc(C)n4n3)c2C)cc1,113,115
CCc1ccc(NC(=O)C2CCCN2S(=O)(=O)c2ccc3c(c2)n(C)c(=O)c(=O)n3C)cc1 (centres undefined),107,112
Cc1cccc(-n2nc(C)c(C(=O)N3CCN(c4ccccc4)CC3)c2-n2cccc2)c1,105,111
Cc1c(Cl)cccc1NC(=O)C1CCCN(c2nnc(-n3c(C)ccc3C)s2)C1 (centres undefined),106,98
Cc1ccc(CCNC(=O)c2cnc3c(C)cccn3c2=O)cc1,110,110

# 4 entries drawn at random from the list so far, as already listed:
SMILES,Polio RdRp inh,Polio RdRp inh intensity
Cc1ccc(NC(=O)c2oc3ccc(S(=O)(=O)N4CCCCCC4)cc3c2C)c(C)c1,114,108
O=C(Nc1ccc(SC(F)F)cc1)c1cc(-c2ccc3c(c2)OCCO3)on1,107,111
COc1ccc(-c2noc(CSc3nnc(C)n3-c3ccc(C)cc3)n2)cc1OC,106,106
CC(=O)N1c2ccccc2C(=O)C1N1CCN(c2ccc(F)cc2)CC1 (centres undefined),109,114

# The listing continues.
SMILES,Polio RdRp inh,Polio RdRp inh intensity
CCOC(=O)N1CCC(NC(=O)c2cnn(-c3ccc(F)cc3)c2-n2cccc2)CC1,108,107
CN(C)S(=O)(=O)Nc1ccc(-c2cn3ccsc3n2)cc1,106,110
O=C1c2oc3ccccc3c(=O)c2C(c2cccc(O)c2)N1Cc1ccc(F)cc1 (centres undefined),103,105
COc1cc(NC(=O)CN(c2ccc(C)cc2)S(=O)(=O)c2cccc3nonc23)cc(OC)c1,108,106
O=S(=O)(c1ccc(-c2csc(=Nc3ccc(F)cc3)n2CCCCCCO)cc1)N1CCCC1,99,97
CCOC(=O)c1[nH]c(C)c(CCC(=O)Nc2cc(Cl)ccc2C)c1C,101,110
COc1cccc(NC(=O)Cn2c(=O)n(CCC(=O)NCc3ccccc3OC)c(=O)c3ccccc32)c1,104,108
Cc1cc(NS(=O)(=O)c2ccc(NC(=O)COc3cc(C)c(Br)cc3C(C)C)cc2)no1,105,108
CCc1cccc(-n2nnc(-c3nc(-c4ccc5c(c4)OCO5)no3)c2C)c1,108,114
CCOc1ccc(OCC)c(NC(=O)C2CCN(S(=O)(=O)c3c(C)noc3/C=C/c3ccccc3F)CC2)c1,114,107
O=C(Nc1nc2c(F)cccc2s1)c1ccc(S(=O)(=O)N2CCOCC2)cc1,105,116
COc1ccc(-n2cc(-c3ccccc3)c3c(Nc4ccc(OC)c(OC)c4)ncnc32)cc1,110,107
COc1ccc(Nc2cc(C(=O)NCc3ccccc3)c3ccccc3n2)c(OC)c1,113,110
Cc1ccc(CSc2c(C)cnc3c2c(=O)n(C)c(=O)n3C)cc1,110,106
COc1ccc(CNC(=O)c2ccc3c(c2)N(Cc2ccccc2)C(=O)c2ccccc2S3(=O)=O)cc1,109,112
Cc1cccc(-n2c(C)cc(C(=O)C(=O)Nc3ccccc3F)c2C)c1C,112,114
O=C(CC(=O)Nc1ccccc1F)Nc1ccc2nc3n(c(=O)c2c1)CCCCC3,111,115
COCCNC(=O)c1cccc(-n2c(C)nc3cccnc32)c1,107,103
CC(C)CCNC(=O)Nc1ccc2c(c1)N(Cc1ccccc1)C(=O)c1ccccc1S2,108,111
CCOC(=O)c1c(S(=O)(=O)N2CCCC(C(=O)Nc3ccc(C)cc3C)C2)c(C)n(CC)c1C (centres undefined),110,103
Cc1nc(C)c(CCNS(=O)(=O)c2ccc(C)c(C)c2)s1,111,110
Cn1ncc(C(=O)N2CCN(c3ccccc3F)CC2)c1C1CCN(C(=O)OC(C)(C)C)CC1,109,113
O=C(Cn1cc(S(=O)(=O)Cc2cccc(Cl)c2)c2ccccc21)NCCc1ccccc1,106,105
COc1ccc(Oc2nc3c(C)cccn3c(=O)c2/C=C(\C#N)c2nc3ccccc3[nH]2)cc1,107,130
COc1ccc(C2=C(C)C(N3CCC(C(=O)Nc4ccc(F)cc4C)CC3)=NS2(=O)=O)cc1,109,113

# The list goes on:
SMILES,Polio RdRp inh,Polio RdRp inh intensity
COc1ccc(NC(=O)c2oc3ccccc3c2NC(=O)C23CC4CC(CC(C4)C2)C3)c(OC)c1,108,109
COc1ccc(NC(=O)c2csnn2)cc1Cl,103,108
CCOc1ccc(NC(=O)c2sc3nc4c(cc3c2N)CN(Cc2ccccc2)CC4)cc1,102,107
CCOC(=O)c1ccc2c(c1)N(Cc1ccc(F)cc1Cl)C(=O)c1ccccc1S2,112,113
Cc1ccc(CN2CCN(C3CCN(C(=O)Nc4ccccc4C(F)(F)F)CC3)C(=O)C2=O)cc1,103,110
O=c1c(S(=O)(=O)c2ccccc2)cn(Cc2cccc(F)c2)c2cc(N3CCCC3)c(F)cc12,105,100
COc1ccc(N2CCN(C(=O)c3cc4c(=O)n(Cc5ccccc5)ccc4nc3C)CC2)cc1,108,107
CC(C)CN(CCCNC(=O)CN1N=C(c2ccccc2)CCC1=O)CC(C)C,111,113
Cc1ccccc1-c1cc2nccc(-c3cc(Cl)ccc3O)n2n1,104,105
CC(NS(=O)(=O)c1ccc2c(c1)CCN2C(=O)CCCC(=O)O)c1ccccc1 (centres undefined),101,100
COc1cc(OC)c(OC)cc1/C=C/c1nc2ccccc2c(=O)n1-c1ccc(Br)c(C)c1,108,111
CCOC(=O)c1c(-c2ccccc2)csc1NC(=O)c1cc(-c2ccc(F)cc2)on1,89*,88*
CNS(=O)(=O)c1cn(CC(=O)Nc2ccc(C)cc2C)cc1S(=O)(=O)NC,112,93
COc1ccc(-n2cc(C(=O)NCCc3cc(OC)ccc3OC)c3ccccc3c2=O)cc1,107,112
CCOC(=O)c1c(NC(=O)c2cc(=O)c3cc(C)ccc3o2)sc2c1CCCC2,114,116
COc1ccc(C)cc1NC(=O)c1cnc2ccc(C)cn2c1=O,102,105
COc1ccc(-c2csc3ncnc(Nc4ccc(OC)cc4OC)c23)cc1,105,110
CC(Nc1ncnc2c1cnn2-c1cccc(Cl)c1)c1ccccc1 (centres undefined),105,97
CCOC(=O)C1CCN(C(=O)CN2c3ccc(CC)cc3-c3ccccc3S2(=O)=O)CC1,102,96
O=C(/C=C\c1ccc2c(c1)OCO2)NC1CC(=O)N(c2ccc(Cl)cc2)C1 (centres undefined),106,103
CCc1ccc(C2CC(=O)c3c([nH]c(C(=O)OC4CCC(C)CC4)c3C)C2)cc1 (centres undefined),111,111
COc1ccc(N2CCN(C(=O)C3CCCN(S(=O)(=O)c4ccc5c(c4)oc(=O)n5C)C3)CC2)cc1 (centres undefined),112,113
O=C(NCc1ccc(F)cc1)C1CCN(c2ncnc3c2nc2n3CCCCC2)CC1,113,116
O=C1[C@@H]2CSC(c3ccc(F)cc3)N2C(=O)N1c1ccc(Cl)cc1 (some centres undefined),103,105
Cc1ccc2oc(-c3ccc(Cl)c(NC(=O)c4cc5ccccc5o4)c3)nc2c1,99,102
Cc1ccc(-n2ncc3c(N4CCN(c5ccccc5)CC4)ncnc32)cc1C,110,117
O=C(c1ccc([N+](=O)[O-])cc1)N(Cc1ccco1)c1ccccn1,111,105
CCCCn1c(=O)c2oc3ccccc3c2n(Cc2cccc(C)c2)c1=O,110,108
CC(C)c1nn2c(=O)cc(COC(=O)C3CCCCC3)nc2s1,108,112
O=C(Cn1c(=O)n(Cc2nc(-c3ccccc3)no2)c(=O)c2cc3c(cc21)OCO3)Nc1cccc(C(F)(F)F)c1,109,113
